Compound activity: PubChem BioAssay, several laboratories
YopH inh: blocks Yersinia enterocolitica YopH tyrosine phosphatase; fluorescence Ex485/Em525; inhibition, %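 (about 10 µM by stock and volumes)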; actives 0.16% (n = 140,000);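 active = inhibition of 50% or more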;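 note: controls were vehicle for no effect and minimum signal wells for full effect; inactives centre near -20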
Arbovirus inh: blocks arbovirus infection; AID 1251; inhibition, % at 10 µM; arbovirus infection cell-based antiviral screen; actives 0.37% (n = 200,000);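 active = inhibition from about 30%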;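 note: bluetongue infection of BSR cells; cell survival read as ATP light after 72 h; 0% = infected wells without compound and 100% = uninfected wells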
Mtb bLac sens: beta-lactam sensitization of Mtb H37Rv. inhibition, % at 25 µM. AID 434955. M. tuberculosis H37Rv growth with meropenem, percent inhibition; hits of this screen are not shown here. actives 0.27% (n = 330,000);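 active = about 74% or more and at least 40 points above the plate without the antibiotic, then above 30% in a dose series; inconclusive = first-round hits that could not be retested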;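 note: growth measured after seven days incubation then overnight dye step; 0% = bacteria only wells and 100% = bacteria with antibiotic; twin plates without the antibiotic show which effects depend on it; some results filed as inactive read as strong as hits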
Mtb H37Rv: M. tuberculosis H37Rv growth inhibitors, H37Rv strain (AID 1626); M. tuberculosis H37Rv growth inhibition; higher % means a stronger effect; inhibition, % at 10 µM, or IC50 in µM where a hit was titrated; actives 0.95% (n = 220,000);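 active = confirmed in a dose series; inconclusive = inhibition above 80% but not taken into the dose series; inactive = below 80% or under 30% at every dose of the series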;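 note: bacteria incubated seven days before Alamar blue readout; 0% = bacteria only wells and 100% = bacteria with antibiotic wells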
RecA splice inh: Mtb RecA intein splicing inhibition; cell-free RecA intein splicing, fluorescence; inhibition, %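 (about 9 µM by stock and volumes)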; actives 0.75% (n = 290,000); AID 2221; in the data active = inhibition above about 30%; inconclusive = no clear call, values can overlap the other calls;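 note: 0% = vehicle wells and 100% = reference inhibitor control wells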
Target sequence (P9WHJ3 whole entry, looked up, canonical isoform): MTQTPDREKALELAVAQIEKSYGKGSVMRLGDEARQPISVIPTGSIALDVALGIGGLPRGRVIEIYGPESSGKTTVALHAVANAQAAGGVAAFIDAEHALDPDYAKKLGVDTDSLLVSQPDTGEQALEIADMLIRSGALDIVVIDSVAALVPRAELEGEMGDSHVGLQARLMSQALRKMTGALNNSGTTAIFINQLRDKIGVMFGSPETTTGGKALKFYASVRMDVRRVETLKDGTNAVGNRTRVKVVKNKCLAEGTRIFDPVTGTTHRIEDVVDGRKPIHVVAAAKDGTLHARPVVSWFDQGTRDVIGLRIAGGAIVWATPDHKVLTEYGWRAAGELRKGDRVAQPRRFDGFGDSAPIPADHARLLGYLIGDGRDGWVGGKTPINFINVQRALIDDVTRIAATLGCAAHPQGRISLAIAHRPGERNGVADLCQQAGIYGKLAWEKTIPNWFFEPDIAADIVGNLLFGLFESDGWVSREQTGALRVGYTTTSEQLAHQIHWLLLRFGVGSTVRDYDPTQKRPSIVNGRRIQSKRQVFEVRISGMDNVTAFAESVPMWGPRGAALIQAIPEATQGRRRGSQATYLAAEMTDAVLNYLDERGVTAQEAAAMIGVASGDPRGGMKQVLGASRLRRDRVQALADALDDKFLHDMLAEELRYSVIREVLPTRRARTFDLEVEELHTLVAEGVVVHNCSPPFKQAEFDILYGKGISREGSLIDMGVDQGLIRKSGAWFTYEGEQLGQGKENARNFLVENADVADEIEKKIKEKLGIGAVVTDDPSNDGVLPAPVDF
Numbers without * were called inactive; ? = inconclusive; · = no result given; & = joins results of further samples. Only part of the results is shown; rates above refer to the full screens.

SMILES | YopH inh | Arbovirus inh | Mtb bLac sens | Mtb H37Rv | RecA splice inh
COc1cccc(NC(=O)Cn2c(SCC(=O)N3CCOCC3)nc3ccccc32)c1 | -16 | -7 | -19 | -1% | 1.1
Cc1ccc(-c2csc(N3CCN(c4ccc5nc(-c6ccncc6)n(CCN6CCCCC6)c5c4)CC3)n2)cc1 | · | · | 99 | · | 7.2
CCOC(=O)C1(S(=O)(=O)c2ccc(Cl)cc2)CCN(Cc2ccccc2)CC1 | -28 | -4 | -17 | -7% | 2.1
N#CCc1ccc(Oc2ncccn2)cc1 | · | · | -2 | · | -0.9
O=S(=O)(NC1CCCCC1NCc1ccco1)c1ccc(Cl)cc1 (stereo not given) | -7 | 9 | 3 | -5% | 1.4
COc1ccc([C@@H]2CC(=O)c3c(O)cc(O[C@@H]4O[C@H](CO[C@@H]5O[C@@H](C)[C@H](O)[C@@H](O)[C@H]5O)[C@@H](O)[C@H](O)[C@H]4O)cc3O2)cc1O | · | · | -12 | · | -5.2
CC(C)C(=O)NCCc1nc(-c2ccc(Cl)cc2)no1 | · | · | -7 | -8% | 1.0
CCCCn1c(-c2csc3ccccc23)n[nH]c1=S | -25 | 3 | 0 | · | 0.5
Cc1sc2ncnc(N3CCC(C(=O)Nc4nnc(CC(C)C)s4)CC3)c2c1C | · | · | 0 | · | -0.2
O=C(Nc1nnc(COc2ccccc2F)s1)Nc1ccccc1F | · | · | -2 | -5% | ·
CS(=O)(=O)N1CCc2cc(NC(=O)c3ccc(Cl)cc3Cl)ccc21 | · | -2 | -7 | -3% | -1.8
Cc1noc(C)c1C(=O)NCc1ccco1 | 2 | -1 | -1 | -11% | 0.7
O=C(CCl)NCCN1C(=O)S/C(=C\c2cccnc2)C1=O | · | 21 | 73 | 3% | 6.4
COc1ccc(C2C(C(=O)c3ccc(C)o3)=C(O)C(=O)N2CC2CCCO2)cc1OC (stereo not given) | · | · | -6 | · | -0.4
COc1ccc(CCNC(=O)c2cccc3ccccc23)cc1OC | · | · | 7 | · | 2.9
Oc1cccc2c(NC(=S)Nc3ccc(SC(F)F)cc3)cccc12 | -28 | 6 | 89 | ? | 14
Cc1cc(C)nc(SCc2ccc(C(=O)N/N=C/c3ccc(C(=O)O)cc3)cc2)n1 | · | 2 | 2 | -5% | 1.1
CC(NS(=O)(=O)c1ccc([N+](=O)[O-])cc1)C(=O)NN (stereo not given) | · | 8 | 1 | 1% | -2.6
COc1ccc(Nc2cc(C)nc3ncnn23)cc1Cl | · | · | 4 | · | 0.1
COc1ccc(C(=O)C2CCCN(C(=O)c3cccnc3OC)C2)cc1F (stereo not given) | · | 5 | -3 | -2% | 2.2
Cc1cc(NS(=O)(=O)c2ccc(NC(=O)Cc3cccs3)cc2)no1 | -31 | -4 | -2 | -1% | -5.1
CCOc1cc(/C=N/NC(=O)CN2CCCCC2)ccc1O | · | · | -13 | · | -6.1
CC[N+](CC)(CCCCS(=O)(=O)[O-])CCNP1(=O)C=C(c2ccccc2)OC(c2ccccc2)=C1 | · | 6 | 2 | 5% | 0.9
COc1ccccc1/C=C/C=N/NC(=O)c1ccncc1 | -20 | -7 | 99 | ? | -1.5
COCCCNC(=O)c1ccc2c(=O)n(Cc3ccccc3OC)c(=S)[nH]c2c1 | · | · | 1 | · | -0.2
Next entries
SMILES | YopH inh | Arbovirus inh | Mtb bLac sens | Mtb H37Rv | RecA splice inh
CC(=O)N(c1ccccc1)c1nc(/C=C/C(=O)O)cs1 | · | 3 | -8 | -2% | -0.7
CCOc1ccc(NC(=O)CSC2=NN3CCCC(=O)N=C3S2)cc1 | · | · | 85 | · | -0.1
CCc1c(C)nc(N)n2c(SCC(=O)Nc3ccccc3OC)nnc12 | -49 | 11 | ? | -16% | -7.0
Cc1nn(-c2ccccc2)c2c1C(c1cccc([N+](=O)[O-])c1)N(c1ccccc1)C(=O)N2 (stereo not given) | -18 | 6 | -2 | 7% | -0.9
Cc1ccc(-n2c(O)c(C=NCc3cccnc3)c(=O)[nH]c2=O)cc1C | -29 | 2 | -3 | -4% | 0.5
Cn1cccc1C(=O)OCc1cc(Cl)cc2c1OCOC2 | -54 | 0 | 0 | -9% | 1.3
CCOc1ncccc1C(=O)N1CCN(S(=O)(=O)c2ccc3ccccc3c2)CC1 | · | · | -9 | 3% | -3.8
C=CCN1CC(C)/C(=N\O)CC1C (stereo not given) | · | · | 2 | 0% | -1.2
O=C(Nc1nnc(-c2ccccc2)s1)c1ccccc1O | · | · | -3 | · | 1.5
CC(=O)Nc1ccc(NC(=O)c2ccc(COc3ccccc3Br)o2)cc1 | · | · | 1 | · | -0.9
Cc1cc(C)n(CC(=O)N/N=C/c2ccc([N+](=O)[O-])s2)n1 | · | -9 | 17 | 1% | 0.2
COc1ccc(/C(O)=C2/C(=O)C(=O)N(CC3CCCO3)C2c2ccc(O)c(OC)c2)cc1 (stereo not given) | · | 14 | -5 | -5% | -3.7
CCCCOc1ccccc1C1NC(=O)CCC1[N+](=O)[O-] (stereo not given) | · | · | 1 | · | -0.2
CCOC(=O)c1c(-c2ccc(C)s2)csc1NC(=O)c1cccs1 | -11 | -1 | 1 | -6% | -3.8
CC1(C)NC(=O)N(CCCOc2ccccc2Br)C1=O | -16 | 4 | -2 | -5% | 2.4
CCOC(=O)Cn1c(=O)n(Cc2ccc(OC)cc2)c(=O)c2cccnc21 | · | · | 3 | · | -0.5
O=c1c2c(nc3c(-c4cccc5ccccc45)c[nH]n13)CCC2 | -12 | -20 | 71 | -9% | 0.3
CC(=O)Nc1ccc(N2C(C(C)=O)=NN(c3ccccc3)C2c2cccs2)cc1 (stereo not given) | -2 | -1 | -14 | 1% | -9.3
CC1=C[C@@H](C)[C@@H](c2ccc(C(F)(F)F)cc2)OC1=O | · | · | -5 | · | -0.5
Cc1ccc(N(CC(=O)NCc2ccco2)C(=O)CNS(=O)(=O)c2ccc(F)cc2)c(C)c1 | · | · | 7 | · | 2.0
CCN(CC)S(=O)(=O)c1ccc(C(=O)NC(C)(C)C)cc1 | · | 14 | 0 | 7% | -1.3
Cc1ccc(C)c(NC(=O)c2sc(Cl)nc2-c2ccccc2)c1 | -25 | -3 | 55 | 1% | 2.4
CN1/C(=C/C=C(C#N)C#N)C(C)(C)c2ccccc21 | · | 2 | 5 | -4% | -14
O=S(=O)(Cc1cc(-c2ccc(Cl)cc2)no1)c1ccccc1 | -15 | -5 | -6 | 1% | -2.0
Cc1cc(C=C2C(=O)c3ccccc3C2=O)c(C)n1-c1cccc(C(=O)O)c1 | · | 21 | 1 | -8% | 3.2
Carrying on:
SMILES | YopH inh | Arbovirus inh | Mtb bLac sens | Mtb H37Rv | RecA splice inh
CCOc1ccc(-n2c(COc3ccc(C)cc3)nnc2SCC(N)=O)cc1 | -8 | 12 | -3 | -15% | ·
CC(C)(C)NC(=O)Nc1ccccc1C(N)=O | 34 | 4 | -5 | -5% | -0.6
Cc1nccn1CC1CCc2c(c3ccccc3n2C)C1=O (stereo not given) | · | · | 4&-3 | -9% | -12&-0.1
COc1cccc(NC(=O)Cn2c3ccc(OC)cc3c3nc4n(c(=O)c32)CCS4)c1 | · | · | 2 | · | 1.2
COc1ccc(-n2c(NNC(C)=O)nc3sc4c(c3c2=O)CCCC4)cc1 | · | · | 8 | · | 1.4
Cc1cc(C)c[n+](CC(=O)c2ccccc2)c1 | · | · | -5 | · | -0.2
N#Cc1cc(Sc2ccccn2)c([N+](=O)[O-])cc1C#N | · | 4 | -5 | -2% | 9.7
COc1ccc(CC(=O)OCC(=O)N2N=C(c3ccccc3)CC2c2ccc(OC)cc2)cc1 (stereo not given) | -27 | 13 | 10 | 1% | 6.4
CC(C)N=c1cc2n(-c3ccc(Cl)cc3)c3ccccc3nc-2cc1Nc1ccc(Cl)cc1 | · | · | 100 | <0.39µM* | 6.0
O=c1c2ccccc2oc2ccc(C#CC3(O)CCCCC3)cc12 | · | · | 93 | 7% | 0.5
C=CCn1c(SCC(=O)O)nc2sc(CC)cc2c1=O | · | 10 | -6 | 1% | 0.0
O=c1[nH]c2cccnc2n(CCNc2ncc(C(F)(F)F)cc2Cl)c1=O | · | -3 | 3 | 5% | 8.7
O=C(c1cc(-c2ccccn2)nc2ccc(Cl)cc12)N1CCN(CCc2ccccc2)CC1 | · | -9 | -5 | 4% | 0.1
COc1cc(/C=C2\SC(=O)N(CCN)C2=O)ccc1OS(=O)(=O)c1cc(C)ccc1C | · | -18 | · | 1% | 18
CCOc1ccc(NC(=O)CSc2nnc(C)n2Cc2ccccc2)cc1 | -18 | 4 | 28 | 28% | -3.0
CC(C)C(=O)Nc1cccc(C(=O)Nc2ccc3c(c2)OCO3)c1 | -21 | 1 | -6 | -5% | 1.6
CSc1nc(N2CCN(C)CC2)c2c(c1C#N)CC(C)(C)OC2 | · | · | 1 | -5% | -0.2
COc1ccc(NS(=O)(=O)c2cccc(C(=O)N(C)CC(=O)Nc3ccc(C)cc3)c2)cc1 | · | · | -2 | · | 2.4
C=CCNC(=O)/C(C#N)=C/c1ccccc1OCc1ccc(C(=O)OC)cc1 | -16 | 3 | -5 | 4% | 3.6
CN(C)CCOC(=O)c1cn(Cc2ccccc2)c2ccccc12 | -27 | -10 | 0 | -2% | -0.5
CC(=O)Nc1ccc(NC(=O)Cc2ccc(S(=O)(=O)N3CCCCC3)s2)cc1 | 0 | -4 | -5 | 0% | 1.6
COc1cc2nc(CN(C)Cc3ccc(SC)cc3)[nH]c(=O)c2cc1OC | · | · | 5 | 3% | -2.8
CCOC(=O)Cn1nc(C)c(NC(=O)c2cccc([N+](=O)[O-])c2)c1C | · | 22 | 1 | -11% | 1.7
O=[N+]([O-])c1cccc(/C=N/Nc2nc(N3CCCCC3)nc(N3CCCCC3)n2)c1 | · | 6 | -2 | 1% | -1.4
CCOCCCNc1nc2c(c(=O)n(C)c(=O)n2C)n1CCCc1ccccc1 | -10 | 7 | -2 | 0% | -4.1

By substructure, those above with a nitro group on carbon
SMILES | YopH inh | Arbovirus inh | Mtb bLac sens | Mtb H37Rv | RecA splice inh
CC(NS(=O)(=O)c1ccc([N+](=O)[O-])cc1)C(=O)NN (stereo not given) | · | 8 | 1 | 1% | -2.6
Cc1nn(-c2ccccc2)c2c1C(c1cccc([N+](=O)[O-])c1)N(c1ccccc1)C(=O)N2 (stereo not given) | -18 | 6 | -2 | 7% | -0.9
Cc1cc(C)n(CC(=O)N/N=C/c2ccc([N+](=O)[O-])s2)n1 | · | -9 | 17 | 1% | 0.2
CCCCOc1ccccc1C1NC(=O)CCC1[N+](=O)[O-] (stereo not given) | · | · | 1 | · | -0.2
N#Cc1cc(Sc2ccccn2)c([N+](=O)[O-])cc1C#N | · | 4 | -5 | -2% | 9.7
CCOC(=O)Cn1nc(C)c(NC(=O)c2cccc([N+](=O)[O-])c2)c1C | · | 22 | 1 | -11% | 1.7
O=[N+]([O-])c1cccc(/C=N/Nc2nc(N3CCCCC3)nc(N3CCCCC3)n2)c1 | · | 6 | -2 | 1% | -1.4

Going on with the list:
SMILES | YopH inh | Arbovirus inh | Mtb bLac sens | Mtb H37Rv | RecA splice inh
O=C(c1ccccc1)N(NC(=O)C(O)(c1ccccc1)c1ccccc1)c1cccc(F)c1 | -25 | -2 | -6 | 3% | -1.0
CCCn1c(=O)[nH]c(=O)c2c(C(F)(F)F)cc(-c3ccc(C)cc3)nc21 | · | 3 | 2 | 2% | -2.4
CCOc1cc(S(=O)(=O)NCCCN2CCOCC2)c(C)cc1C | · | · | 3 | · | 0.0
COc1ccc(CCn2c(NN=C3CCCC3)nc3c2c(=O)[nH]c(=O)n3C)cc1 | · | · | 0 | 6% | 0.7
O=C(c1ccc(O)cc1)c1ccc(C(=O)O)c(C(=O)O)c1 | -14 | 4 | -10 | -8% | -11
CC(C)(C)n1cnc2cc(NC(=O)c3cccs3)ccc21 | · | -20 | 40 | 4% | 0.2
O=C(CN1CCC(O)CC1)N1c2ccccc2C=Cc2ccccc21 | -34 | 8 | -4 | -2% | -4.3
O=C(c1ccc2c(c1)OCO2)N(c1ccc(Br)cc1)C1C=CS(=O)(=O)C1 (stereo not given) | · | · | 1 | · | -2.1
CCOC(=O)C(C)Sc1nnc(-c2c[nH]c3ccccc23)n1C (stereo not given) | -24 | 7 | 3 | -2% | -4.1

Reprinted at random: 5 compounds from above, in no set order.
SMILES | YopH inh | Arbovirus inh | Mtb bLac sens | Mtb H37Rv | RecA splice inh
CCOC(=O)C(C)Sc1nnc(-c2c[nH]c3ccccc23)n1C (stereo not given) | -24 | 7 | 3 | -2% | -4.1
O=C(c1ccc2c(c1)OCO2)N(c1ccc(Br)cc1)C1C=CS(=O)(=O)C1 (stereo not given) | · | · | 1 | · | -2.1
O=C(c1ccccc1)N(NC(=O)C(O)(c1ccccc1)c1ccccc1)c1cccc(F)c1 | -25 | -2 | -6 | 3% | -1.0
CC(C)(C)n1cnc2cc(NC(=O)c3cccs3)ccc21 | · | -20 | 40 | 4% | 0.2
COc1ccc(CCn2c(NN=C3CCCC3)nc3c2c(=O)[nH]c(=O)n3C)cc1 | · | · | 0 | 6% | 0.7
